High-throughput results from PubChem BioAssay.
2A firefly – FMDV 2A StopGo reporter, firefly signal; hit rate 0.23% among 120,000; AID 1745856; Potency, µM (top dose mostly 57.5 µM), for the others: top-dose signal change, negative = less light; HEK cells with a luciferase reporter of 2A StopGo recoding; active = well fitted falling curve with a large enough effect; inconclusive = small, poorly fitted or top-dose-only effect; inactive = no such curve, though single readings can be large or run the other way; also: nearly all actives have a fitted effect of over 60% in size; overnight with compound
StopGo RLuc – FMDV 2A StopGo reporter, Renilla signal. HEK cells with a luciferase reporter of 2A StopGo recoding. Potency, µM (highest dose often 57.5 µM), for the others: top-dose signal change, negative = less light. hit rate 0.32% among 120,000; active means well fitted falling curve with a large enough effect; inconclusive means small, poorly fitted or top-dose-only effect; inactive means no such curve, though single readings can be large or run the other way; also: nearly all actives have a fitted effect of over 55% in size; overnight with compound
* marks the source's active call; other numbers are inactive results; u = inconclusive; [ ] = remark or other dose. % is scaled to controls: 0 for no effect and ±100 for the full control effect; potency is read from the fitted curve at half-maximal effect. A portion of the library; rates above refer to the full screens.

SMILES	2A firefly	StopGo RLuc
O=C(Cc1n[nH]c(=O)c2ccccc12)Nc1ccc(F)cc1	19%	6%
CC(C)Cc1noc(CSc2nc(-c3ccco3)nc3ccccc23)n1	-4%	-17%
Cc1ccccc1Oc1ccc(C(=O)O)cc1	115%[activator]	-2%
CCc1ccc(NC(=O)CC2C(=O)N(c3cccc(C)c3)C(=O)N2Cc2ccco2)cc1 (centres undefined)	-13%	60%[activator]
Cc1ccccc1OCc1nnc(SCc2ccc(Cl)c(Cl)c2)n1C	8%	16%
COc1ccc(C(=O)CN2C(=O)N(c3cc(C)ccc3C)S(=O)(=O)c3ccccc32)cc1	-14%	15%
CCc1ccccc1N(C)C(=O)c1nn(-c2ccc(OC)cc2)c(=O)c2c1c1ccccc1n2C	7%	0%
CCc1nc2ccc(C(=O)NCc3ccccc3)cc2nc1CC	20%	8%

Shown with each value named: part of the list above
CCc1ccc(NC(=O)CC2C(=O)N(c3cccc(C)c3)C(=O)N2Cc2ccco2)cc1 (centres undefined)
- 2A firefly = -13%
- StopGo RLuc = 60%[activator]
Cc1ccccc1OCc1nnc(SCc2ccc(Cl)c(Cl)c2)n1C
- 2A firefly = 8%
- StopGo RLuc = 16%
COc1ccc(C(=O)CN2C(=O)N(c3cc(C)ccc3C)S(=O)(=O)c3ccccc32)cc1
- 2A firefly = -14%
- StopGo RLuc = 15%
CCc1ccccc1N(C)C(=O)c1nn(-c2ccc(OC)cc2)c(=O)c2c1c1ccccc1n2C
- 2A firefly = 7%
- StopGo RLuc = 0%

(list continues)
SMILES	2A firefly	StopGo RLuc
Cc1cc(C)c(S(=O)(=O)NCCc2cc3ccc(C)cc3[nH]c2=O)c(C)c1	-22%	-10%
O=C(CCCCn1c(=O)[nH]c2ccsc2c1=O)N1CCN(c2cccc(Cl)c2)CC1	0%	-6%
CC(CNC(=O)c1ccc(Cn2c(SCc3ccccc3)nc3cccnc32)cc1)c1ccccc1 (centres undefined)	48%[activator]	-5%
Cc1ccccc1NC(=O)C(C#N)=C1CCCC1	23%	14%
CC(C)C(NC(=O)c1n[nH]c(=O)c2ccccc12)c1ccccc1 (centres undefined)	-4%	0%
CN(C)CCN1C(=O)c2ccccc2N(C)c2ccccc21	3%[11.5 µM]	-3%
CCNc1c(NC(=O)Nc2ccc(Cl)cc2)c(=O)oc2ccccc12	-4%	-6%
CCOc1ccc(CCNC(=O)C2Cc3ccccc3N2C(=O)CC)cc1OCC (centres undefined)	-27%	-15%
Cn1c(NCc2ccccc2)nc2c1c(=O)n(Cc1ccccc1F)c(=O)n2C	-9%	-18%
CCOc1nc(NC(=O)NS(=O)(=O)Oc2ccc(Cl)cc2)nc(-c2ccccc2)n1	150%[activator]	10%
N#Cc1nc(-c2ccccc2F)oc1NCc1ccco1	89%[activator]	92%[activator]
O=C(c1ccc2c(c1)CCN2S(=O)(=O)c1ccccc1)N1CCN(c2ccccc2F)CC1	0%	7%
Cc1c(CC(=O)NCCCO)c(=O)oc2cc(O)c(Cl)cc12	-9%	-10%
CCCCNC(=O)NCCN(C)C	0%	11%
CCn1c(=O)c2sccc2n(CC(=O)N2CCOc3ccc(C)cc32)c1=O	-4%	-9%
CCN(CC)CCCNC(=O)C(C)C1CCN(C(=O)c2ccc3nc(-c4ccccc4)oc3c2)CC1 (centres undefined)	0%	-8%
Cc1ccc(CN2CCSc3ccc(C(=O)Nc4cc(C)cc(C)c4)cc32)cc1	13%	-8%
CCc1c(C)sc(NC(=O)c2ccccc2)c1C#N	121%[activator]	-7%[1.06 µM]
O=[N+]([O-])c1cccc2ccc(/C=C/c3cccc(F)c3)nc12	160%[activator]	-15%
CCC(=O)Nc1nnc(S(=O)(=O)N(C)Cc2ccccc2)s1	-21%	-6%
CCC(C)c1ccc(-c2csc(NC(=O)c3cnc4c(c3)c(=O)n(C)c(=O)n4C)n2)cc1 (centres undefined)	119%[activator]	-8%
C[N+](C)(CC#Cc1ccccc1)CC#Cc1ccccc1	u	-1%[1.06 µM]
CN1CCN(CC(=O)C(C#N)c2ccccc2)CC1 (centres undefined)	-4%	3%
COCCCNC(=O)CSc1nc2c(sc3ccccc32)c(=O)n1CCc1ccccc1	14%	-10%
Cc1ccc(-n2c(/C=C/c3cc(Br)cs3)nc3ccccc3c2=O)cc1C	-4%	7%
O=C(O)/C=C/c1ccccc1Br	5%	4%
CC(=O)c1ccc(C(=O)N2CC=C(c3ccccc3)CC2)s1	41%[activator]	8%
COc1ccc(NC(=O)C(=O)Nc2ccc3nc4n(c(=O)c3c2)CCCCC4)c(OC)c1	-11%	-10%
COc1ccccc1NC(=O)C1=C(C)Nc2c(C(=O)Nc3cccc(C)c3)cnn2C1c1ccccc1C (centres undefined)	-10%	1%
CCCSc1nc2c(c(=O)[nH]c(=O)n2C)n1CC(O)COc1ccccc1C (centres undefined)	u	u
O=C(CCc1cccs1)NC1CCCC1	11%	-4%
COc1ccc(S(=O)(=O)c2c(SC)nn(CC(=O)Nc3ccc(C)c(Cl)c3)c2N)cc1	u	30%[activator]
Cc1cccc(NC(=O)CCS(=O)(=O)c2ccc3c(c2)n(C)c(=O)c(=O)n3C)c1C	-14%	-10%
Cc1[nH]c(C=O)c(C)c1C#N	9%	4%
Cc1ccc(-c2cc(C(F)(F)F)c(C#N)c(SCC(=O)O)n2)cc1	-5%	-14%
Cc1ccc2c(=O)cc(C(=O)NCCc3nc(-c4ccccc4)no3)oc2c1	3%	20%
COc1ccc(CNC(=O)c2nc(SC(C)C)ncc2Cl)cc1	6%	16%
CCOc1ccc(NC(=O)CCNS(=O)(=O)c2cccc3nsnc23)cc1	-8%	54%[activator]
COc1ccccc1/C=C/c1nc(C#N)c(N(C)C)o1	88%[activator]	1%
Cc1ccc(-n2ncc(C(=O)NCCN3CCN(C)CC3)c2C2CCN(C(=O)OC(C)(C)C)CC2)cc1C	-5%	7%
O=C(Nc1nc(-c2ccncc2)cs1)c1cccc(S(=O)(=O)N2CCOCC2)c1	7%	82%[activator]
Cc1nc2cccnc2n1-c1cccc(C(=O)N2CCN(c3cccc(Cl)c3)CC2)c1	u	u
COc1cc(C(=O)N2CCc3c([nH]c4ccccc34)C2c2ccc(F)cc2)cc(OC)c1OC (centres undefined)	u	-28%
COc1cc(OC)cc(C(=O)Nc2cc(-c3nc4cc(Cl)ccc4o3)ccc2Cl)c1	219%[activator]	-7%
OCCOc1ccc(CNCC2CCCO2)cc1 (centres undefined)	9%	-3%
O=C(NC1CCN(Cc2ccc(Cl)cc2)CC1)c1ccc2nc(Cl)ccc2c1	u	u
O=S1(=O)CCN(C2CCCCC2)c2c(F)nc(N3CCOCC3)c(F)c21	-3%	-3%
Cc1cccc(C)c1NC(=O)NCCCN1CCN(c2ccccc2)CC1	-13%	-3%
CCOC(=O)C1=C(CN2CCc3ccccc3C2)NC(=O)NC1c1ccc(CC)cc1 (centres undefined)	u	u
CCc1nc2ccc(C(=O)Nc3ncccc3O)cc2nc1CC	60%[activator]	33%[activator]
CNC(=O)c1ccc(NC(=O)CC2(C(=O)O)CCCCC2)cc1	1%	-3%
Cc1cc2n(n1)CCC(=O)N2C(C)C(=O)NCc1ccc(F)cc1 (centres undefined)	1%	-6%
O=C(C1CCN(S(=O)(=O)Cc2ccccc2)CC1)N1CCN(c2cccc(Cl)c2)CC1	3%	-5%
Cc1ccc(C)c(Nc2nc(N3CCOCC3)nc3nccnc23)c1	17%	5%
Cc1c(Cl)cccc1NC(=O)c1cnc(N2CCCCC2)c2ccccc12	-1%	-3%
CCc1ccc(NC(=O)CSc2nc3c(c(=O)[nH]2)CN(Cc2ccc(C)cc2)CC3)cc1	u	-11%

Following part:
SMILES	2A firefly	StopGo RLuc
CC(=O)c1ccc(NC(=O)C2CCC(CNS(=O)(=O)c3cccc4nsnc34)CC2)cc1 (centres undefined)	-2%	4%
Cc1nnc(N2CCCC(C(=O)NCCc3ccc(Cl)cc3)C2)c2nn(-c3ccccc3)c(C)c12 (centres undefined)	-11%	-11%
O=C(C1CCC1)N1CCCc2cc(S(=O)(=O)Nc3ccc(F)cc3)ccc21	-21%	18%
CCC(C)n1cc(/C=C2\NC(=O)N(CC)C2=O)c2ccccc21 (centres undefined)	-14%	-28%
Cc1ccc(CNC(=O)c2c(C)oc3ncnc(N4CCOCC4)c23)cc1	-22%	-6%
CC(C)OCCCNC(=O)CCCn1c(SCC(=O)c2ccc(Br)cc2)nc2c(sc3ccccc32)c1=O	-18%	-10%
Cc1cc(C)c2c(=O)cc(CSc3n[nH]c(C)n3)[nH]c2c1	-7%	-1%
O=C(CSc1nc(-c2ccccc2)c(-c2ccccc2)o1)N1CCCCC1	-27%	-2%
CCOc1cccc2cc(-c3nc(-c4nonc4N)no3)c(=O)oc12	29%	-3%
CN1C(C(=O)Nc2ccc(OC(F)(F)F)cc2)=CC(c2cccs2)=NS1(=O)=O	7%	2%
Cc1ccccc1CN1CCN(S(=O)(=O)c2ccc(CC(=O)O)s2)CC1	-7%	0%
COc1ccc(OC)c(/C=C/C(=O)Oc2ccccc2Cl)c1	6%	5%
NNCCc1ccccc1F	173%[activator]	13%
O=C(CCCCCCCCC#CI)Oc1ccccc1	-13%	-8%
Cc1c(C(=O)NCc2cccc(Cl)c2)sc2nc[nH]c(=O)c12	-9%	-9%
CN(C)c1ccc(C(=O)OCn2nnc3ccccc3c2=O)cc1	0%	35%[activator]
O=C(CS(=O)(=O)Cc1coc(-c2ccc(F)cc2)n1)NC1CCCCCC1	u	u
N#CC(C(=O)Nc1ccccc1)=C1CCCC1	111%[activator]	5%
CCN(Cc1ccc2c(c1)OCO2)C(=O)c1cc(=O)c2cc(C)ccc2o1	-1%	27%
O=C(Nc1ccc(F)cc1F)c1cnn(-c2ccc(F)cc2)c1-n1cccc1	5%	4%
COc1cccc2cc(C(=O)Nc3ccc(CC(=O)O)cc3)c(=O)oc12	u	0%
COc1ccc(-c2cc3ccc(OS(C)(=O)=O)cc3oc2=O)c(OC)c1	0%	30%
CC(C)CCNC(=O)CCCc1nnc2c(=O)n(-c3cccc(F)c3)ccn12	-9%	-7%
COc1cccc(NC(=O)CN(C)C(=O)C2CCN(c3ccc(C#N)cn3)CC2)c1	-31%	u
CCn1cc(CNC(=O)c2cc(-c3ccc(C)cc3)nc3c(C)cccc23)cn1	13%	-5%
Cc1ccc(S(=O)(=O)N2CCN(C(=O)c3nn(-c4ccccc4F)c(C)cc3=O)CC2)c(C)c1	0%	6%
Cn1c(=O)[nH]c(=O)c2c1nc1n(CCO)c(-c3ccccc3)cn21	-11%	5%
N#Cc1ccc(C(=O)NC2CCSc3ccccc32)cc1 (centres undefined)	0%	-11%[1.06 µM]
Cc1ccc(S(=O)(=O)N2CCCC(C(=O)Nc3ccnc4ccccc34)C2)cc1 (centres undefined)	u	u
CCN(CC)c1ccc(NC(=O)Cn2ncc3c(C)n(Cc4ccccc4F)c(C)c3c2=O)c(C)c1	2%	-6%
CCCCn1c(=O)[nH]c(=O)c2c1nc(CCc1ccccc1)c(=O)n2CCOC	-8%	-2%
CCOc1ccc(-c2nc(C#N)c(NCc3ccc4c(c3)OCO4)o2)cc1	83%[activator]	0%
CC1=C(C(=O)Nc2ccccc2)C(c2sccc2C)n2nc(-c3ccccc3)nc2N1 (centres undefined)	0%	8%
COc1ccc(-c2noc(CSc3nnc(-c4ccccc4)n3-c3ccc(F)cc3)n2)c(OC)c1	-17%	-7%
C=CCN1C(=O)S/C(=C/c2cn(C)c3ccccc23)C1=O	49%[activator]	-12%
Cc1cccc(NC(=O)c2cc3cc(C)ccc3n2C)c1	56%[activator]	-1%
Oc1ccc(-c2nc(-c3ccc(Br)cc3)no2)cc1	64%[activator]	18%
Cc1ccc(-c2noc(CCn3c(=O)[nH]c4cc5c(cc4c3=O)OCO5)n2)cc1	14%	5%
Cc1ccc(NC(=O)CCn2cnc3c2c(=O)n(C)c(=O)n3C)c(C)c1	-7%	-6%
O=c1cc(C(F)(F)F)c2ccc(OS(=O)(=O)c3ccc4c(c3)CCC4)cc2o1	-5%	3%
COc1ccc(-c2cnn3c(C)cc(C)nc23)cc1OC	10%	-21%
CC(C)c1ccc(/C=N/NC(=O)c2ccncc2)cc1	181%[activator]	17%
CCCCCCCCN1C(=O)[C@@H](CC(=O)NCCCOCCCC)C[C@@]2(C(=O)OC)C1=C[C@H](COCc1ccccc1)O[C@@H]2C	u	u
Cc1noc2ncnc(N3CCCC(C(=O)Nc4cccc(C(F)(F)F)c4)C3)c12 (centres undefined)	-16%	0%
Cc1ccc2nc(-c3cccnc3)cc(C(=O)NCc3ccco3)c2c1	12%	12%
Cc1cccc(NC(=O)Cn2c(=O)n(CCCCCC(=O)NCc3ccccc3)c(=O)c3sccc32)c1	-5%	0%
CCOc1ccccc1NC(=O)Cc1c(C)[nH]n(-c2nc(-c3ccc(Cl)cc3)cs2)c1=O	-8%	-10%
COc1ccc(CNC(=O)Cc2c(C)c3cc4c(C)coc4c(C)c3oc2=O)cc1OC	-18%	4%
C=CCc1ccc(-c2ccc(OCCCCCCCCCC)c(F)c2)nc1	14%	-5%[1.06 µM]
